Bioassay records deposited in PubChem BioAssay by National Center for Advancing Translational Sciences (NCATS).
nsP2pro primary: CHIKV nsP2 protease inhibition, primary qHTS; Q8JUX6; FRET peptide cleavage, nsP2pro, fluorescence 1 h; Potency, µM (series often up to 24.9 µM), inactives show top-dose activity change, negative = inhibition, actives largely listed as inhibitors; 1.1% of 31,000 active; active means well fitted inhibition curve with a large enough effect; inconclusive means small, poorly fitted or top-dose-only effect; inactive means no such curve, though single readings can be large or run the other way; note: nearly all actives have a fitted effect of over 60% in size; a reference inhibitor and vehicle were the controls
The depositor's hits bear a star; i = inactive; ? = inconclusive; & = joins results of further samples; [ ] = remark or other dose. % is set by controls: 0 for no effect and ±100 for the full control effect; potency is the fitted concentration of half-maximal effect. Not all compounds are listed; rates above refer to the full screens.

SMILES | nsP2pro primary
O=C1Nc2ccccc2CC12CCN(Cc1cccnc1)C2 (configuration not stated) | -7%[39.2 µM]
Cc1ccccc1CSc1nc2ncc(Br)cc2[nH]1 | i
COC[C@@H](c1ccc(C(F)(F)F)cc1)N1CCN(C2(C)CCN(C(=O)c3c(C)ncnc3C)CC2)C[C@@H]1C | -21%&-6%&16%
O=C(NC(Cc1cc(=O)[nH]c2ccccc12)C(=O)O)c1ccc(Cl)cc1 (configuration not stated) | -5%
COc1ccc(NC(=O)C(=O)NCC2(c3ccc(OC)c(OC)c3)CCCC2)cc1 | -17%
CC(C)CNC(=O)N(C)C1CCc2nn(C)c(=O)n2CC1 (configuration not stated) | -1%
Cc1ccc(OCCn2c(CCNC(=O)/C=C/c3cccc(Br)c3)nc3ccccc32)cc1 | -18%
Cc1ccccc1N1CCN(S(=O)(=O)C[C@]23CCC(CC2NC(=O)[C@@H](N)CCS(C)(=O)=O)C3(C)C)CC1 (some centres not stated) | 13%
CCOC(=O)c1cc2c(=O)n3ccccc3nc2n(C(C)C)c1=NC(=O)c1cc2ccccc2o1 | -15%
Cc1ccccc1NC(=O)CN(C)S(=O)(=O)c1cccc2nsnc12 | -27%
CCC[C@@H]1CN(C(=O)c2cc(-c3cccs3)n(C)n2)C[C@H]1N(C)C | i
COc1cccc(Oc2nc3c(c(=O)n(Cc4ccccc4Cl)c(=O)n3C)n2C)c1 | -20%
CC(=O)c1ccc(N2CCN(C(=O)c3ccc4c(c3)CCC(=O)N4)CC2)cc1 | i
CCOc1ccc(CCn2c3c(c(=O)[nH]c2=O)C(NC(=O)c2ccccc2)(C(F)(F)F)C(=O)N3)cc1OCC (configuration not stated) | -2%
CN1CCN(c2ccc(Nc3c4ccccc4nc4ccccc34)cc2)CC1 | -8%
CCOc1ccc(NC(=O)c2oc3ccccc3c2NC(=O)C(C)Oc2ccccc2)cc1 (configuration not stated) | -16%
Oc1ccc(Cl)cc1Cc1cc(Cl)ccc1O | 19%
CCCN1CC2(CCN(Cc3nc(CCOC)no3)CC2)CC1C(=O)O (configuration not stated) | -11%
COc1cccc(NC(=O)N(Cc2c[nH]c3ccccc23)C2CCCCCC2)c1 | -10%
COc1cccc(C(=O)NCCNc2nc3cc(C)cc(C)c3cc2C#N)c1 | ?
COc1ccc(C2c3c(nc(C)[nH]c3=O)Oc3ccc4ccccc4c32)cc1OC (configuration not stated) | i
CN(CC[C@H]1CN(C(=O)Cc2cccs2)CC[C@H]1CC(=O)O)c1ccccc1 | ?
O=C(NCc1cccnc1)[C@@H]1C[C@@H](O)CN1C1CCN(C(=O)COc2ccccc2)CC1 | ?
Cc1ccc(NC(=O)N2CC(n3cc(C(=O)NCc4ccncc4)nn3)C2)cc1C | ?
COCCN(Cc1ccc(C)c(Br)c1)S(=O)(=O)c1ccc2[nH]c(=O)ccc2c1 | -16%
Cc1ccc(CNC(=O)c2nc(SCc3cccc(C)c3)ncc2Cl)cc1 | -17%
CCc1c(C(=O)Nc2cc(S(=O)(=O)N(CC)CC)ccc2O)[nH]c(C)c1C(C)=O | -22%
COc1ccc(NC(=O)c2ccc3c(SCC(=O)O)c4c(nc3c2)CCC4)c(OC)c1 | 88%[activator]
NC1CCN(c2cnc3c(O)ccc(C(=O)O)c3c2)CC1 | i
CCOC(=O)CC(NS(=O)(=O)c1ccc2[nH]c3c(c2c1)CCCC3)c1ccccc1Cl (configuration not stated) | -5%

Given as labelled records: three of the compounds above.
Compound: Oc1ccc(Cl)cc1Cc1cc(Cl)ccc1O
  nsP2pro primary: 19%
Compound: CCCN1CC2(CCN(Cc3nc(CCOC)no3)CC2)CC1C(=O)O (configuration not stated)
  nsP2pro primary: -11%
Compound: COc1cccc(NC(=O)N(Cc2c[nH]c3ccccc23)C2CCCCCC2)c1
  nsP2pro primary: -10%

The list goes on.
SMILES | nsP2pro primary
Cc1cc2c(s1)c(C=O)c(C(=O)NCc1ccccc1F)n2C | 4%
CCOc1ccc(CCNC(=O)C2CCN(Cc3nc(-c4ccc(OC)c(OC)c4)oc3C)CC2)cc1OCC | -14%
CCOc1ccc(NC(=O)CSc2nnc(CNC(=O)c3c(F)cccc3Cl)o2)cc1 | -14%
Cc1cc(C)nc(NC(=S)N2CCN(Cc3c(F)cccc3Cl)CC2)c1 | -4%
O=C(c1cc(-c2ccc(F)cc2)n[nH]1)N1CC2CC(C1)[C@H]1CCCC(=O)N1C2 (some centres not stated) | ?
Cc1ccc(NC(=O)c2oc3ccc4c(c3c2C)C(=O)CC(C)(C)O4)c(C)c1 | -11%
O=C(N[C@@H]1CCOC[C@H]1OCc1ccccn1)c1cccc(-n2cnnc2)c1 | 0%
Cc1ccc(CN2COc3ccc4c(C)cc(=O)oc4c3C2)cc1 | -17%
CCCCCCOc1cc2c(cc1N(C)c1ncc(C(=O)O)cn1)C(C)(C)CCC2(C)C | ?
O=C(NCc1ccc(F)c(F)c1)c1ccc2nnc(Cc3ccco3)n2c1 | -16%
Cc1ccc(-n2nc(C)c([C@H]3C=C[C@@H](OC(=O)Nc4ccc(C(C)C)cc4)C3)c2C)cc1Cl | 0%
Fc1ccccc1C1=NC(c2ccc(C(F)(F)F)cc2)=Nc2ccccc2N1 | -25%
O=C(NC[C@H]1O[C@@H](CO)[C@@H](O)[C@H]1N1CCCC1)c1ccc(F)c(Cl)c1 | -2%[39.2 µM]
Cc1cccc(-c2noc(CN(C(C)C)S(=O)(=O)c3ccc(Br)cc3)n2)c1 | -17%
COc1ccc(-c2cc3c(cn2)CN(C)CCN3)cn1 | -6%[39.2 µM]
COc1ccc(-c2ccc(CNc3ccc(N4CCN(C(=O)OC(C)(C)C)CC4)cc3)o2)cc1 | i
Cc1ccc(C(C(=O)NCc2ccc(O)cc2)N(C)C)cc1 (configuration not stated) | 0%
Cc1cnc(C2CCOCC2)n1CC1CCN(C2CCCCCC2)CC1 | i
CC1=C(C(=O)OC2OC(COC3OC(CO)C(O)C(O)C3O)C(O)C(O)C2O)C(C)(C)CCC1 (configuration not stated) | 7%[10 µM]
C=C1CC2[C@@]3(C)C=CC(=O)C(C)(C)C3=C(O)C(=O)[C@@]2(C)C2(C(=O)OC)C(=O)C(C)OC(=O)[C@@]12C (some centres not stated) | -10%[10 µM]
O=C(NCc1ccccc1F)C(=O)NCC(c1ccco1)S(=O)(=O)c1cccs1 (configuration not stated) | -29%
COC(=O)C1=CO[C@@H](O[C@@H]2O[C@H](CO)[C@@H](O)[C@H](O)[C@H]2O)[C@@H]2[C@@H](CO)[C@@H](O)C(O)[C@H]12 (some centres not stated) | -2%[10 µM]
COc1ccc(-n2c(C)c(C(C)=O)c3cc(OC(=O)c4ccc(C)cc4)ccc32)cc1 | -12%
CCc1ccccc1NC(=O)Cc1cn(C)c2ccccc12 | -7%
CC1CCC(NC(=O)Cn2ncc3c4ccccc4n(Cc4ccc(F)cc4)c3c2=O)CC1 (configuration not stated) | -13%
C[C@H](N)C(=O)Nc1ccc(Cl)cc1C(=O)c1ccc[nH]1 | -4%
CC(c1cccc(-c2cccc(C(=O)N(C)C)n2)c1)N1CCCC1 (configuration not stated) | i
COc1ccc(OC)c(NC(=O)CN2C(=O)c3ccccc3Sc3ccc(C(=O)N4CCCC4)cc32)c1 | -5%
COc1ccc(OC)c2sc(N3CCN(C(=O)C(C)(C)C)CC3)nc12 | -19%
C[C@@H]1[C@H]2[C@H](O[C@@H]3O[C@H](CO)[C@@H](O)[C@H](O)[C@H]3O)OC=C(C(=O)O)[C@H]2C[C@@H]1O | 21%

Following part.
canonical_smiles,nsP2pro primary
O=c1c(S(=O)(=O)c2ccccc2)cn(Cc2ccc(F)cc2)c2cc(N3CCCCC3)c(F)cc12,-10%
O=C(CSc1nc2ccccc2c(=O)n1-c1ccccc1)Nc1ccc2c(c1)CCC2,-12%
COc1cc(NC(=O)O[C@@H]2CC[C@]3(C)C(CC[C@@H](O)[C@H]3CC(=O)N3CC[C@H](NC(C)=O)C3)[C@]2(C)CO)cc(OC)c1 (some centres not stated),-10%
Cc1ccc(CNC2CN(C(=O)OC(C)(C)C)C2)nc1,i
CC(=O)NCc1nc2cccnc2n1Cc1ccccc1,-10%
CC(=O)NCC(=O)N1CCC(c2cc(-c3ccc(F)cc3)n[nH]2)CC1,i
O=C(c1cccc(F)c1)N1CCCC(CN2CCOCC2)CC1 (configuration not stated),-18%
Cc1c(C)n(Cc2ccccc2)c2ccc(C(=O)N3CCN(c4ccccc4F)CC3)cc12,-18%
CN(CCCc1nccn1C)C(=O)[C@H]1CCC[C@H](O)C1,1%
C[C@H]1O[C@@H](Oc2c(-c3ccc(O)c(O)c3)oc3cc(O)cc(O)c3c2=O)[C@H](O)[C@H](O)[C@H]1O,19%

An excerpt of the results above:
canonical_smiles,nsP2pro primary
O=C1Nc2ccccc2CC12CCN(Cc1cccnc1)C2 (configuration not stated),-7%[39.2 µM]
Cc1ccccc1CSc1nc2ncc(Br)cc2[nH]1,i
COC[C@@H](c1ccc(C(F)(F)F)cc1)N1CCN(C2(C)CCN(C(=O)c3c(C)ncnc3C)CC2)C[C@@H]1C,-21%&-6%&16%

More entries:
canonical_smiles,nsP2pro primary
CS(=O)(=O)N1CCC(C2CCN(C(=O)NC3CCCC3)C2)CC1 (configuration not stated),3%
CC(C)=C/C=C\[C@H](C)[C@H]1CC[C@]2(C)C[C@@H]3C(C)=CC(=O)C3/C(CO)=C\C[C@@H]12 (some centres not stated),?
CC(C)c1ccc(S(=O)(=O)c2cnc(SCC(=O)Nc3ccc4c(c3)OCCO4)[nH]c2=O)cc1,4µM*
O=C(NCc1ccc(Cl)cc1)c1ccc2ccnn2c1,i
OCC1(Cc2ccccc2F)CCCN(c2nnnn2-c2ccccc2)C1 (configuration not stated),i
C=C1C(=O)O[C@@H]2/C=C(/C)CC3C=C(C[C@H](OC(=O)/C(C)=C\C)[C@@H]12)C(=O)O3 (some centres not stated),-30%
OCC(CO)(CO)NCC(O)Cn1c2ccc(Cl)cc2c2cc(Cl)ccc21 (configuration not stated),24%
Cc1cccc(C)c1NC(=O)c1cc2sccc2n1Cc1ccc(F)cc1,20%
CC(=O)Nc1sc2c(c1-c1nc3ccccc3s1)CCNC2,i
COc1cc(/C=C2/C(=O)Nc3ccccc32)cc(OC)c1O,i
OCc1nnc2n1-c1ccc(Cl)cc1C(c1ccccc1Cl)=NC2,-9%
Cn1c(=O)cc(N2CCCC(N)C2)n(Cc2cc(F)ccc2C#N)c1=O (configuration not stated),2%&-3%
CSCCC(NS(=O)(=O)c1ccc2c(c1)oc(=O)n2C)C(=O)NCCc1ccc(C)cc1 (configuration not stated),?
O=C(CCc1nnn2c1CN(C(=O)COc1ccc(F)cc1)CC2)N1CCCC1,i
CNC(=O)c1cccn2cncc12,-19%[39.2 µM]
O=C(Nc1cccc(C(F)(F)F)c1)C1CCN(S(=O)(=O)c2cccc3nsnc23)CC1,-13%
CCCc1nnc([C@H]2CCN(C(=O)c3ccccc3)C2)o1,3%[39.2 µM]
Nc1c(C(=O)Nc2ccccc2F)sc2nc3c(cc12)CCCCCC3,-6%
Cc1ccc(CN2CC[C@H](c3nnc(-c4ccco4)o3)C2)o1,2%[39.2 µM]
FC(F)(F)c1ccc(-c2nc(NCc3ccc(-c4cccnc4)cc3)c3ccccc3n2)cc1,-2%
CCn1cc(C(=O)NCc2ccc(Cl)cc2)c(=O)c2cc(S(=O)(=O)N(C)C3CCCCC3)ccc21,-14%
Cc1cc(Cl)ccc1OCC(=O)N1CC(CO)C2(CCNCC2)C1 (configuration not stated),0%
O=C(O)c1ccc(O)c2ncc(N3CCCNCC3)cc12,i
CNC(=O)c1c(NC(=O)c2cc(=O)c3cc(C)c(C)cc3o2)sc2c1CCCC2,-12%
CC(=O)c1c(C)n(S(=O)(=O)c2ccc(Cl)cc2)c2ccc(NS(=O)(=O)c3ccc(Cl)cc3)cc12,-20%
CCOC(=O)c1cccc(NC(=O)CN2C(=O)c3ccccc3Sc3ncccc32)c1,-4%
CC1(C)CCCC2(C)C1C(OC(=O)/C=C/C=C/C=O)C=C1COC(=O)C12O (configuration not stated),-11%[10 µM]
Cc1cnc(CCNC(=O)c2n[nH]c3ccccc23)n1C1CCC1,i
CCC(=O)N1c2ccccc2CC1C(=O)NCCN1CCN(c2cccc(Cl)c2)CC1 (configuration not stated),-14%
COc1cc2ncnc(-n3nc(-c4ccccn4)nc3N)c2cc1OC,47%[activator][10 µM]
CCc1cccc(C)c1NS(=O)(=O)c1c(C(=O)N2CCC(C)CC2)c(C)n(C)c1C,-10%
O=C(N[C@H]1C[C@H]2C(=O)NC[C@@H](CCC(=O)N3CCN(c4ccccn4)CC3)N2C1)c1cccs1,2%
C=C1CCC2C(C)(C(=O)OC)CCCC2(C)C1CCC1=CCOC1=O (configuration not stated),6%
CCCNC(=O)C1N(c2ccc(OC)cc2)C(=O)C12CCCCC2 (configuration not stated),i
CC1(C(=O)NC2CCCCC2)Cc2ccccc2C(=O)N1Cc1ccccc1Cl (configuration not stated),-25%
CCn1cc(-c2ccc(Cl)cc2)cc1C(=O)N1CCN(c2ccccn2)CC1,-3%
CCOC(=O)c1c(C)sc(-c2c(-c3ccc4c(c3)OCCO4)[nH]c3c2c(=O)n(C)c(=O)n3C)c1O,-15%
Cn1c(C(=O)N2CCN(c3ccccn3)CC2)nc2nc(-c3ccccc3)c(Cl)cc21,i
Cc1nc2sccn2c(=O)c1S(=O)(=O)Nc1ccc(N2CCN(S(C)(=O)=O)CC2)cc1,-19%
Nc1cc(NC(=O)Nc2nnc(-c3ccncc3)s2)ccc1Cl,i

Exported with each value named: entries from further up.
SMILES: Nc1cc(NC(=O)Nc2nnc(-c3ccncc3)s2)ccc1Cl
- nsP2pro primary: i
SMILES: CCOC(=O)c1c(C)sc(-c2c(-c3ccc4c(c3)OCCO4)[nH]c3c2c(=O)n(C)c(=O)n3C)c1O
- nsP2pro primary: -15%
